# HPGD inh – inhibitors of human 15-hydroxyprostaglandin dehydrogenase (HPGD); Potency, µM, without a hit: at the highest dose activity change, negative = inhibition, hits mostly inhibitors; purified HPGD, NADH fluorescence kinetic, PGE2 substrate; AID 894; P15428; hit rate 4.3% among 150,000; active = well fitted inhibition curve with a large enough effect (not every such curve was filed as active); inconclusive = small, poorly fitted or top-dose-only effect, or another doubt; inactive = no such curve, though single readings can be large or run the other way;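 also: top concentration of the series not given in the record; plate controls included wells without enzyme; inactives centre near -10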
# Target sequence (P15428 whole entry, looked up): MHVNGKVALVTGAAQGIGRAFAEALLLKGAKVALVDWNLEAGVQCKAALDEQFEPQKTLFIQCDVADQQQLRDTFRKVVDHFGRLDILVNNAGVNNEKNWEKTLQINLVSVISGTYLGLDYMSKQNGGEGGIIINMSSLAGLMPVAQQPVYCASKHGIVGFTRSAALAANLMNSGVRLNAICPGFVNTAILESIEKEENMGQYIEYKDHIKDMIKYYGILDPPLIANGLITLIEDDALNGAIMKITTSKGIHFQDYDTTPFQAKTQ
#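 20 nM HPGD preincubated 15 min at room temperature with compound in 50 mM Tris-HCl pH 8, 0.01% Tween 20. Started with 1 mM NAD+ and 30 uM prostaglandin E2; NADH fluorescence (360/450 nm) read 5 times over 30-s intervals, last minus first.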
# * marks the source's active call; other numbers are inactive results; ? = inconclusive; & = joins results of further samples. % is scaled to controls: 0 for no effect and ±100 for the full control effect; potency is read from the fitted curve at half-maximal effect. This is a subset, so the mix of outcomes need not match the whole.
SMILES,HPGD inh
CCOC(=O)N1CCC(NC(=O)c2cc(C(=O)Nc3ccc(F)cc3F)ccc2CO)CC1,-11%
Cc1ccc(S(=O)(=O)N2CCCCC2C(=O)N2CCN(c3ccccc3F)CC2)cc1 (centres undefined),-3%
CC(=O)c1cc(C#N)c(Oc2cc(C)cc(C)c2)nc1C,-7%
COCCNC(=O)c1cc2c(=O)n3cccc(C)c3nc2n(Cc2ccncc2)c1=N,?
CCOC(=O)C1CCN(C(=O)COc2cccc(C)c2)CC1,-11%
CN(CCCNC(=O)c1ccc(N2CCCC2=O)cc1)c1ccccc1,-28%
CCOc1ccc(NC(=O)Nc2ccc(N(C)C(C)=O)cc2)cc1,2%
COc1ccccc1-c1nc2ccccc2c(=O)n1NC(=O)c1cccs1,-17%
O=S(=O)(NCC(c1ccco1)N1CCN(c2ccccc2F)CC1)c1ccc2c(c1)OCCO2 (centres undefined),-19%
CC(=O)c1cccc(NC(=O)c2ccc(N(Cc3ccc(C)cc3)S(C)(=O)=O)cc2)c1,-10%
CCOC(=O)c1c(-c2ccccc2)[nH]c2ccc(O)cc12,?
Cc1cccc([N+](=O)[O-])c1NC(=O)CN(Cc1ccccc1)Cc1ccccc1,-5%
CC(C)(C)c1ccc(/C=C/C(=O)N2CCOCC2)cc1,25µM*
COc1ccc(OC)c(Nc2nc(N)nc(CSc3nnc(-c4ccncc4)o3)n2)c1,-8%
CCCCNS(=O)(=O)c1ccc(OCC(=O)OC)cc1,-5%
COC(=O)CC(=O)Cc1nc(N)nc(Nc2ccc(C)c(C)c2)n1,-12%
CCc1ccc(OCC(=O)NC(=S)Nc2ccc(C)cc2C)c(Br)c1,-15%
CC(C)NC(=O)CN(c1cccc(Br)c1)S(C)(=O)=O,-6%
CC(C)(NC(=O)N1CCCC1)c1cccc(C(C)(C)NC(=O)N2CCCC2)c1,-5%
O=C(N/N=C/c1cccs1)c1cc(-c2ccc3ccccc3c2)n[nH]1,-29%
Cc1nc2sc(C(c3ccco3)N3CC(C)OC(C)C3)c(O)n2n1 (centres undefined),-17%
CCCCCCCCCCCCCCCC(=O)NCCCC(=O)O,-3%
c1ccc(-c2ccccc2OCCCN2CCCC2)cc1,-6%
O=C(CS(=O)(=O)Cc1ccccc1)Nc1ccc(S(=O)(=O)N2CCOCC2)cc1,-2%
O=C(CSc1nnc(-c2cccs2)n1Cc1ccco1)Nc1ccc2c(c1)OCO2,-11%
c1ccc(CCn2nnnc2C(c2cccnc2)N2CCN(c3nc4ccccc4s3)CC2)cc1 (centres undefined),-15%
O=[N+]([O-])c1ccc(NC(=S)N2CCc3ccccc3C2)cc1,-6%
COc1ccc(CNC(=O)/C=C/c2cc([N+](=O)[O-])ccc2OC(F)F)cc1,5%
C=C(C)C1(O)OC(=O)C=C1OC (centres undefined),-5%
CCOc1ccc(-n2cnnn2)cc1S(=O)(=O)NC1CC1,-20%
Cc1ccc(C)n1-c1ccc(-c2nnco2)cc1,-25%
Cn1c(/C=C/N2CCOCC2)c(C(=O)c2ccc(Br)cc2)c(=O)n(C)c1=O,-20%
O=C(Nc1ccc2c(c1)OCO2)c1ccc(S(=O)(=O)NCC2CCCO2)cc1 (centres undefined),2%
Cc1cc(C)c2c3c(sc2n1)C1(CCSCC1)C(C#N)=C(N)O3,-17%
Cc1ccc(S(=O)(=O)N(C)CC(=O)NC2CCCC2)cc1,-8%
O=C(CC1(O)C(=O)N(CN2CCOCC2)c2ccccc21)c1ccccc1 (centres undefined),-7%
Cc1ccc(-c2noc(C3CCN(S(=O)(=O)c4ccc5c(c4)OCCO5)CC3)n2)o1,-3%
COc1ccc(NC(=S)NCCc2ccccc2)c(OC)c1,?
COCCCn1c(Cc2csc(Nc3cccc(Cl)c3)n2)nnc1SCC(=O)OC1CCCCC1,-27%
O=C(NC(C(=O)c1ccccc1)n1cnccc1=O)c1ccccc1 (centres undefined),-4%

# Records above shown as hits in HPGD inh:
SMILES,HPGD inh
CC(C)(C)c1ccc(/C=C/C(=O)N2CCOCC2)cc1,25µM*

# (more compounds)
SMILES,HPGD inh
O=C1OC(c2ccccc2)=N/C1=C\N1CCCCC1,-28%
CC1CCCN(C(=O)Cn2nnc(-c3cccnc3)n2)C1 (centres undefined),-13%
O=c1c(CCc2ccccc2)nc2cncnc2n1C1CC1,-10%
Cc1occc1-c1nnc(SCC(=O)c2ccc(Cl)cc2)n1CC1CCCO1 (centres undefined),-5%
O=C(NC1CCCC1)C(c1ccc(Cl)cc1)N(Cc1ccc(F)cc1)C(=O)CCl (centres undefined),-17%
COC(=O)C(C)NC(=O)C(C)NC(=O)OCc1ccccc1 (centres undefined),3%
COc1ccc(-c2cc(C(=O)Nc3c(C)nn(Cc4ccccc4)c3C)no2)cc1,-22%
O=C(CCc1ccc(S(=O)(=O)NCCc2ccccc2)cc1)Nc1ccc2c(c1)OCCO2,-7%
Fc1ccc(-c2oncc2-c2nnnn2-c2ccccc2)cc1F,-11%
CCOC(=O)c1[nH]c2ccc(OC)cc2c1NC(C)=O,?

# Some of these compounds in order of molecular weight, falling:
SMILES,HPGD inh
COc1ccc(-c2cc(C(=O)Nc3c(C)nn(Cc4ccccc4)c3C)no2)cc1,-22%
Fc1ccc(-c2oncc2-c2nnnn2-c2ccccc2)cc1F,-11%
CCOC(=O)c1[nH]c2ccc(OC)cc2c1NC(C)=O,?

# (next part)
SMILES,HPGD inh
O=C(CSc1nn(-c2ccccc2)c(=S)s1)NC(=O)NCc1ccco1,-20%
CCC(=O)N1CCc2cc(Br)cc(S(=O)(=O)NCC3CCCO3)c21 (centres undefined),0%
O=C(COC(=O)c1cc2ccccc2cc1O)Nc1cccnc1Cl,-2%
COC(=O)c1ccc(C)c(NC(=O)C2COc3ccccc3O2)c1 (centres undefined),-8%
CCCCn1nc2cc(C(=O)N[C@H](C)C3CCCCC3)ccc2c1OCC,?
Cc1c(C(=O)OCC2CCCO2)[nH]c2c1C(=O)CC(c1ccc(N(C)C)cc1)C2 (centres undefined),-12%
CCCCCn1c(CN2CC(C)OC(C)C2)nc2c1c(=O)n(C)c(=O)n2C (centres undefined),1%
COc1ccc(C(=O)CN2C(=O)NC(C)(c3ccccc3)C2=O)cc1OC (centres undefined),-14%
CCn1cc(CNC(=O)c2c(-c3c(Cl)cccc3Cl)noc2C)c(C)n1,-8%
O=C1CC(c2ccccc2)N1c1ccccc1 (centres undefined),-10%
C=CCOC(=O)Nc1snnc1C,-7%
Cn1[nH]c(=O)c2ccccc2c1=O,-18%
O=C(NCC1(c2ccccc2)CCCC1)C1(c2ccccc2)CCCC1,-6%
Cn1c(SCC(=O)Nc2cc(C(C)(C)C)nn2-c2ccccc2)nc2ccccc21,-1%
S=c1[nH]nc(-c2ccc(Cl)cc2)n1Cc1ccccc1,?
Cc1ccc(-c2cn(-c3ccccc3)c(SCC(N)=O)n2)cc1C,-7%
CC(=O)Nc1ccc(S(=O)(=O)Oc2ccc(/C=N/NC(=O)c3ccc(Cl)cc3)cc2)cc1,2%
CC(C)(C)NC(=O)CN(C(=O)C1CSC(=O)C1)c1ccc2c(c1)OCCO2 (centres undefined),-8%
O=C(Nc1cc(Cl)ccc1N1CCOCC1)c1cnccn1,-13%
Cc1ccc(/C=N/NC(=O)c2ccccn2)s1,-22%
CC(CSc1nnnn1-c1ccccc1)Cn1c(N2CCCC2)nc2c1c(=O)[nH]c(=O)n2C (centres undefined),-2%
CC(=O)N(Cc1ccccc1)c1ncc2c(n1)c(=O)c(C#N)c1ccccn12,-17%
Nc1c(C(=O)OCC2CCCO2)c2nc3ccccc3nc2n1C1CCCCC1 (centres undefined),-24%
O=C(O)CCCCC1CCSS1 (centres undefined),-6%&-2%&-23%
O=C(NC1CCCC1)C1CCCN1S(=O)(=O)c1cccc2cccnc12 (centres undefined),3%
CN(C)c1cccc(C(=O)N/N=C/c2ccsc2)c1,-21%
COC(=O)c1ccc(NC(=O)NS(=O)(=O)c2ccc(C)cc2)cc1,-11%
CCN(CC)c1ccc2cc(S(=O)(=O)c3ccc(C)cc3)c(=O)oc2c1,-30%
Cc1nc(N2CCc3ccccc3C2)[nH]c(=O)c1CCC(C)C,-9%
COCC(C)N=C1NN=C(c2c[nH]c3ccccc23)CS1 (centres undefined),-25%
CCOC(=O)C1=C(C)NC(=O)NC1c1ccc(OCCO)c(OC)c1 (centres undefined),-13%
CCOC(=O)c1c(NC(=O)CCN2C(=O)c3cccc([N+](=O)[O-])c3C2=O)sc(C(=O)OC(C)C)c1C,-17%
O=c1c2ccccc2c(/C=N/c2nnc(Cc3ccccc3)s2)c(O)n1-c1ccc(Cl)cn1,-22%
CCN(CC)c1ccc(S(=O)(=O)Nc2cc(Cl)ccc2Cl)cc1NC(=S)NC(=O)C1CCCC1,-30%
COc1cccc(CN2CCN(Cc3cc(OC)c(OC)cc3[N+](=O)[O-])CC2)c1,2%
c1ccc(-c2nnnn2CCOCCn2nnnc2-c2ccccc2)cc1,-7%
OCCNc1nc(Nc2ccccc2)nc2ccccc12,-11%
O=C(O)CCc1c(C(=O)O)[nH]c2ccccc12,-20%
COCCN(CC(=O)Nc1ccccc1)S(=O)(=O)c1ccc(S(=O)(=O)N2CCCC2)cc1,-10%
O=c1c2c3nc4ccccc4nc3n(-c3ccc4c(c3)OCCO4)c2ncn1C1CCCC1,-9%
CC(C)(C)n1nnnc1C(c1ccc(F)cc1)N(Cc1ccc(F)cc1)Cc1ccco1 (centres undefined),-20%
COc1ccc(N2CCN(C(=O)Cn3nnc(-c4cccs4)n3)CC2)cc1,-5%
CN1CCC(=NNC(=O)C(=O)NC2CCCC2)CC1,-9%
Cn1ccnc1SCC(=O)Nc1ccc2nc(SCC(=O)NC3CC3)sc2c1,14µM*
COc1ccc(C2/C(=C(\O)c3cc(C)ccc3C)C(=O)C(=O)N2CCN(C)C)cc1OC (centres undefined),-10%
C=CCn1c(SC)nnc1-c1cccc([N+](=O)[O-])c1,-6%
CN(CCCNC(=O)CN1C(=O)CC(C)(C)S(=O)(=O)c2ccccc21)C1CCCCC1,-12%
COc1ccc(/C(C)=N/N=C2/NC(=O)CC(C(=O)O)S2)cc1 (centres undefined),-16%
O=C(NCc1ccc(N2CCCC2=O)cc1)c1cn(CCc2ccccc2)nn1,0%
O=c1ccc2ccc(Oc3ccc([N+](=O)[O-])cc3[N+](=O)[O-])cc2o1,?

# The list goes on:
SMILES,HPGD inh
Cc1cccc(N(CC(=O)NC2CCCC2)C(=O)c2cc3cc4cccc(C)c4nc3s2)c1C,-29%
CC(=O)Nc1c(NC(C)C)c2ccccc2oc1=O,-2%
O=C(Nc1cc2nn(-c3ccccc3)nc2cc1Cl)c1ccco1,-32%
OCc1n[nH]c(CO)n1,-4%
O=C(CCCN1C(=O)c2cccc3cccc(c23)C1=O)N1CCN(c2ccccc2O)CC1,?
COC(=O)Nc1nnc(Cc2ccc(OC)cc2)s1,-3%
COc1ccc(NC2=NCCC2)cc1,-12%
CCOc1ccccc1-n1c(COc2ccc(C)cc2)nnc1SCC(N)=O,-8%
Cn1nnnc1SCC(=O)c1c(N)n(C)c(=O)n(C)c1=O,-5%
COc1ccc(C(=O)c2cnc(/N=C/N(C)C)s2)cc1,?

# Some of the entries so far, tab-delimited.
molecule	HPGD inh
OCc1n[nH]c(CO)n1	-4%
O=C(CCCN1C(=O)c2cccc3cccc(c23)C1=O)N1CCN(c2ccccc2O)CC1	?

# The main list resumes; the 4 compounds before the break are reprinted first.
SMILES,HPGD inh
COc1ccc(NC2=NCCC2)cc1,-12%
CCOc1ccccc1-n1c(COc2ccc(C)cc2)nnc1SCC(N)=O,-8%
Cn1nnnc1SCC(=O)c1c(N)n(C)c(=O)n(C)c1=O,-5%
COc1ccc(C(=O)c2cnc(/N=C/N(C)C)s2)cc1,?
CC(C(=O)OCc1nnc(-c2ccccc2)o1)N1C(=O)c2ccccc2C1=O (centres undefined),-19%
CCCCNCc1cc(OCC)c(OCC(N)=O)cc1Br,-11%
CCc1ccccc1,-4%
CN1CCc2nc(N)nc(-c3nc(N)nc4c3CN(C)CC4)c2C1,-1%
CCn1c(=O)n(CC)c2cc(S(=O)(=O)N3CCOCC3)ccc21,5%
CC1=CC(C)(C)Nc2cc(C)c(C)cc21,?
Cn1c(=O)c2c(nc(NCc3ccco3)n2CCc2ccccc2)n(C)c1=O,-3%
Cc1nc(SCC(=O)Nc2ccc(F)cc2)c2oc3ccccc3c2n1,-5%
C=CCOc1cccc(C2C(C(=O)c3ccc(C)o3)=C(O)C(=O)N2CCN(C)C)c1 (centres undefined),-7%
CCCC(=O)Nc1nn(CCC)c2nc3ccccc3cc12,-20%
O=C(OCn1ncc(Cl)c(Cl)c1=O)c1ccccc1Cl,-28%
O=C(NC(NC(=S)Nc1ccccc1)C(Cl)(Cl)Cl)c1cccc(Cl)c1 (centres undefined),-8%
CCOC(=O)c1sc(NC(=O)COC(=O)Cn2cnc3ccccc32)c(C(=O)OCC)c1C,-2%
Cc1cccc(N2CCN(C(=O)CCNS(=O)(=O)c3ccc4c(c3)CCC(=O)N4)CC2)c1C,1%
CCC(=O)N(CCC(c1ccco1)c1ccccc1OC)Cc1cccs1 (centres undefined),-16%
Cc1nc2ccccc2n1CC(=O)N1CC(=O)Nc2ccccc21,-3%
COc1ccc(NC(=O)c2cccc(NC(=O)C3C4CC5OC(=O)C3C5C4)c2)c(OC)c1 (centres undefined),-4%
CCCCC(=O)Nc1nc(C)c(-c2csc(Nc3cc(Cl)ccc3OC)n2)s1,?
